Beta2AR agonist: activates human beta-2 adrenergic receptor causing internalization; Am2.2-beta2AR cells, FAP receptor internalization, flow cytometry; reference of the scale not given here; 0.43% of 340,000 active; response, % (no concentration beside the values); P07550;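 active = response above a set limit, near 3 SD of response in nonfluorescent compounds, cut at about 42% in these data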;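 note: stock transfer was 100 nL into about 11 µL; a reference agonist was the positive control; negative values mostly stem from fluorescent compounds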
Beta apoptosis: blocks beta cell apoptosis; INS-1E cytokine-induced death, ATP luminescence, 48 h; percent of positive-control rescue, neutral wells zero; protection from apoptosis, % (test concentration not listed); 0.8% of 300,000 active;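 active = all replicates at 75% or more, or half of them and the mean; inconclusive = half reach 75% but not the mean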;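 note: 0% = cytokine-treated negative control wells and 100% = positive control rescue; higher means more ATP so stronger rescue from cytokine killing; wells of about 40 µL received 100 nL stock; the first replicate is given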
RanGTP-Imp inh: disruptors of Ran-importin-beta complex formation – biochemical, FRET, CFP-Ran, YFP-importin-beta, homogeneous, primary screen. cell-free CFP-Ran/YFP-importin-beta FRET ratio. inhibition, % (test concentration not listed). 1.1% of 300,000 active. AID 2216;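 active = most replicates above 15%; inconclusive = exactly half above 15%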;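 note: 0% = DMSO wells and 100% = Ran loaded with GDP instead of GTP; wells of about 40 µL received 100 nL stock; the first replicate is given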
T cruzi inh: T. cruzi replication inhibition. T. cruzi beta-gal in NIH3T3, luminescence, 90 h. inhibition, % (no concentration beside the values). 1.4% of 300,000 active;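 active = mean inhibition across valid replicates above about 55%, limit read from the data; inconclusive = mean below that limit but half or more replicates reach it; inactive = mean below it, under half of replicates reach it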;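 note: signal also drops with host cell toxicity which is not excluded here; 0% = plate median of DMSO wells and 100% = zero luminescence signal; higher percent means less beta-gal luminescence so fewer parasites; stock transfer was 50 nL into about 50 µL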
Calb FLC: C. albicans growth modulation with fluconazole; C. albicans CaCi-2 (fluconazole-resistant clinical isolate) + fluconazole, Alamar Blue growth, 48 h; growth inhibition, % (test concentration not listed); 0.57% of 300,000 active;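 active = most replicates above 75%; inconclusive = exactly half above 75%; inactive = most below 75%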;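 note: all wells also contain fluconazole at 8 µg/ml as a sub-toxic cotreatment; 0% = median of DMSO wells and 100% = median of geldanamycin control wells; wells of about 8 µL received 7.5 nL stock; the first replicate is given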
LANA-H2A inh: blocks KSHV LANA binding to histone H2A/H2B | Q9QR71 | cell-free LANA-H2A/H2B peptide, fluorescence polarization | inhibition, % (concentration not given with the values) | 0.6% of 320,000 active; in the data active = inhibition mostly above about 10%, no sharp cut-off; inactive = mostly below about 6.7%;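 note: stock transfer was 7.5 nL into about 10 µL; 0% = median of vehicle wells and 100% = median of positive control wells; one replicate is shown; the record names a cut of 25% in any replicate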
Target sequence (Q9QR71 whole entry, looked up): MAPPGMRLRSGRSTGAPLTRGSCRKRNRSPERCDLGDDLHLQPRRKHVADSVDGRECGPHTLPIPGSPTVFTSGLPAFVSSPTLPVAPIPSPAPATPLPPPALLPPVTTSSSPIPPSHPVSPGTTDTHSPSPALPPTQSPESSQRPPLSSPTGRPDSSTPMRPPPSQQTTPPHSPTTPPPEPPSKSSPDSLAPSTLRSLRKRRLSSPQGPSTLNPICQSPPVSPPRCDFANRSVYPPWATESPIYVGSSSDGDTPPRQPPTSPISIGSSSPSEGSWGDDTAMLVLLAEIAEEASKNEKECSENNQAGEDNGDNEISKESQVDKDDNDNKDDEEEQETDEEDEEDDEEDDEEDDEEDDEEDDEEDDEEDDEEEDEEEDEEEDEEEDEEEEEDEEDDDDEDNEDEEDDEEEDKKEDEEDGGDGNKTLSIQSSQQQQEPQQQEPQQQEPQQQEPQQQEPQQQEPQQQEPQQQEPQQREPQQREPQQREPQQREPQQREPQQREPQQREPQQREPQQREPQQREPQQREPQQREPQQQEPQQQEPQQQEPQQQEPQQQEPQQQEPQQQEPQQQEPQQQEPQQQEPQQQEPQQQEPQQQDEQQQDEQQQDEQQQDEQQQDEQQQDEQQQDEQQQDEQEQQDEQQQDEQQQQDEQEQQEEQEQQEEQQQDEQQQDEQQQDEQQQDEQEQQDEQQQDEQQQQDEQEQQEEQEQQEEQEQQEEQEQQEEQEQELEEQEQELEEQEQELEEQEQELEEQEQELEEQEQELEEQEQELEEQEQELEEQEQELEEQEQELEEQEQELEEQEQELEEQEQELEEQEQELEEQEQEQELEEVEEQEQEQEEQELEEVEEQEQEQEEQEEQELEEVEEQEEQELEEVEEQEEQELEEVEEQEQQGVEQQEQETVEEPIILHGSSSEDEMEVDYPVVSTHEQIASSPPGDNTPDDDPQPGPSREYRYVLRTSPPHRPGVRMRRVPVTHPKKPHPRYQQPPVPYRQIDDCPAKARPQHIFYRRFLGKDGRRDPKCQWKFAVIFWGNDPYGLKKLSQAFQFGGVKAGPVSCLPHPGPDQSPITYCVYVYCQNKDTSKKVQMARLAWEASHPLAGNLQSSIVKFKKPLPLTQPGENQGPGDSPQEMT
UCH37 inh: human UCH37 deubiquitinating enzyme inhibition; purified proteasome/UCH37, Ub-AMC cleavage fluorescence; Q9Y5K5; 0.33% of 330,000 active; inhibition, % (test concentration not listed);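 active = mean of two replicates above 20%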;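 note: 0% = compound-free wells with enzyme and 100% = wells lacking proteasome; stock transfer was 100 nL into about 20 µL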
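assay system = human UCH37 enzyme supplied as purified proteasome complex | amount = proteasome at 0.15 nM in the dispensed enzyme solution | schedule = 30 min compound-proteasome preincubation then 25 min substrate reaction, room temperature | measured by = fluorescence, ex 355 nm, em 460 nm | benchmarks = no-proteasome wells (full inhibition) and compound-free wells (no inhibition)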
Bfl-1 A1 inh: inhibitors of the anti-apoptotic protein A1, read as caspase activation; caspase activation, % (concentration not given with the values); MEF A1-2A-BIM cells, Caspase-Glo 3/7 luminescence, 3 h; percent of clofoctol response, vehicle zero; AID 2462; 0.066% of 330,000 active;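 active = over half of replicate activation scores above 10%, or exactly half above 10 with the replicate mean above 10; inconclusive = replicate mean below 10 yet half the replicates above 10; inactive = over half of replicates below 10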;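 note: wells of about 30 µL received 50 nL stock; many hits fall short of the cut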
* hit, by the source's call.

How did CN(C)/C=N/c1c(C#N)cnn1-c1ncnc2sc(-c3ccccc3)cc12 do in these assays?
Beta2AR agonist: 17; Beta apoptosis: 2; RanGTP-Imp inh: 1.0; T cruzi inh: 22; Calb FLC: -2; LANA-H2A inh: 4.3; Bfl-1 A1 inh: 0.7

How did CC(=O)Nc1ccc(S(=O)(=O)Nc2ccccc2N2CCOCC2)cc1Cl do in these assays?
Beta2AR agonist: -2; Beta apoptosis: -1; RanGTP-Imp inh: -1.4; T cruzi inh: -4; Calb FLC: inconclusive; LANA-H2A inh: -0.5; UCH37 inh: 1.0; Bfl-1 A1 inh: -1.2

Results for COC(=O)C1=C(CS(=O)(=O)c2cc(Cl)ccc2OC)NC(=O)NC1c1ccc(O)c(OC)c1 (stereo unspecified) ?
Beta2AR agonist: -25; Beta apoptosis: -9; RanGTP-Imp inh: 2.5; T cruzi inh: -3; Calb FLC: 8; LANA-H2A inh: 0.6; UCH37 inh: 1.0; Bfl-1 A1 inh: -0.6

How did CCC(C)NC(=O)C1(O)c2ccccc2NC(=O)N1c1ccc(C)c(C)c1 (stereo unspecified) do in these assays?
Beta2AR agonist: -3; Beta apoptosis: -8; RanGTP-Imp inh: 5.5; T cruzi inh: -7; Calb FLC: -3; LANA-H2A inh: -14; UCH37 inh: 2.1; Bfl-1 A1 inh: 0.2

How did CC(C)N=Cc1c(O)[nH]c2ccccc12 do in these assays?
Beta2AR agonist: -5; Beta apoptosis: -1; RanGTP-Imp inh: inconclusive; T cruzi inh: -6; Calb FLC: 1; LANA-H2A inh: 0.7; UCH37 inh: 8.4; Bfl-1 A1 inh: 1.1

How did CC(C)CCN(C(=O)CNC(=O)c1cccs1)C(C(=O)NC1CCCCC1)c1cccnc1 (stereo unspecified) do in these assays?
Beta2AR agonist: -30; Beta apoptosis: -6; RanGTP-Imp inh: -0.4; T cruzi inh: -8; Calb FLC: -6; LANA-H2A inh: -0.3; UCH37 inh: 1.2; Bfl-1 A1 inh: -0.2

How did O=[N+]([O-])c1ccc2c(c1)c1ccccc1n2CCO do in these assays?
Beta2AR agonist: -2; Beta apoptosis: -1; RanGTP-Imp inh: 2.7; T cruzi inh: -3; Calb FLC: 9; LANA-H2A inh: -6.1; UCH37 inh: 3.9; Bfl-1 A1 inh: 0.7

Results for Cc1cc(=O)[nH]c(SCC(=O)Nc2ccc(Br)cc2)c1C#N ?
Beta2AR agonist: -3; Beta apoptosis: 6; RanGTP-Imp inh: -1.2; T cruzi inh: -6; Calb FLC: 38; LANA-H2A inh: 2.1; UCH37 inh: 3.6; Bfl-1 A1 inh: -0.5

What do the screens show for `COC(=O)c1[nH]c2ccc(C)cc2c1NC(=O)CN1CCCc2ccccc21`?
Beta2AR agonist: 5; Beta apoptosis: 2; RanGTP-Imp inh: 4.0; T cruzi inh: 85*; Calb FLC: -2; LANA-H2A inh: -4.0; UCH37 inh: -4.0; Bfl-1 A1 inh: 0.0

Results for CS(=O)(=O)N(CC(=O)N1CCCC1)c1ccccc1Br ?
Beta2AR agonist: -5; Beta apoptosis: 3; RanGTP-Imp inh: -0.9; T cruzi inh: -8; Calb FLC: 9; LANA-H2A inh: 0.7; UCH37 inh: 4.8; Bfl-1 A1 inh: 0.2

Results for Cc1nc2c3ccccc3nc(NNC(=O)CCC(=O)N3CCC(C)CC3)n2n1 ?
Beta2AR agonist: 6; Beta apoptosis: -1; RanGTP-Imp inh: 3.9; T cruzi inh: 20; Calb FLC: 3; LANA-H2A inh: 2.8; UCH37 inh: -3.0; Bfl-1 A1 inh: 0.3

How did COc1ccc(C(=O)COC(=O)CCNS(=O)(=O)c2ccc(NC(C)=O)cc2)c(OC)c1 do in these assays?
Beta2AR agonist: 1; Beta apoptosis: -1; RanGTP-Imp inh: -0.4; T cruzi inh: -4; Calb FLC: -5; LANA-H2A inh: 1.6; UCH37 inh: 0.6; Bfl-1 A1 inh: 0.1

Results for COc1ccc(-c2nc(CS(=O)CC(=O)NCc3ccco3)c(C)o2)cc1 (stereo unspecified) ?
Beta2AR agonist: -13; Beta apoptosis: -20; RanGTP-Imp inh: -2.5; T cruzi inh: 10; Calb FLC: 6; LANA-H2A inh: 2.1; UCH37 inh: -0.5; Bfl-1 A1 inh: 0.1

Results for COC(=O)c1cc(-c2ccc(Br)cc2)c2c(=O)n(C)c(=O)n(C)c2n1 ?
Beta2AR agonist: 2; Beta apoptosis: 2; RanGTP-Imp inh: -0.8; T cruzi inh: -12; Calb FLC: -3; LANA-H2A inh: 1.0; UCH37 inh: -22; Bfl-1 A1 inh: -0.2

Results for Cc1ccc(OCC(=O)N/N=C/c2ccccc2)c([N+](=O)[O-])c1 ?
Beta2AR agonist: -8; RanGTP-Imp inh: 4.9; T cruzi inh: -8; Calb FLC: -7

How did O=C(O)CSc1cnc2ccccc2n1 do in these assays?
Beta2AR agonist: 1; Beta apoptosis: -1; RanGTP-Imp inh: 5.4; T cruzi inh: -8; Calb FLC: 7; LANA-H2A inh: 1.5; UCH37 inh: 6.0; Bfl-1 A1 inh: 0.2

Results for COc1ccc2c(COC(=O)[C@H](C)NS(=O)(=O)c3ccccc3F)cc(=O)oc2c1 ?
Beta2AR agonist: 8; Beta apoptosis: -10; LANA-H2A inh: -1.9; UCH37 inh: -171; Bfl-1 A1 inh: -0.9

What do the screens show for `COc1ccc(CCNC(=O)C(C(=O)c2ccccc2)n2cc(Cl)ccc2=O)cc1OC` (stereo unspecified)?
Beta2AR agonist: 1; Beta apoptosis: 3; RanGTP-Imp inh: -0.3; T cruzi inh: -12; Calb FLC: -3; LANA-H2A inh: 0.8; UCH37 inh: 5.0; Bfl-1 A1 inh: -0.4

How did CC(C)CN1CCNC(=O)C1CC(=O)NCCCN1CCCc2ccccc21 (stereo unspecified) do in these assays?
Beta2AR agonist: 4; Beta apoptosis: -3; RanGTP-Imp inh: 4.5; T cruzi inh: -7; Calb FLC: -1; LANA-H2A inh: 0.2; UCH37 inh: -5.5; Bfl-1 A1 inh: 0.2

What do the screens show for `CCCCOC(=O)CCCc1ccc([N+](=O)[O-])cc1[N+](=O)[O-]`?
Beta2AR agonist: -3; Beta apoptosis: -1; RanGTP-Imp inh: 1.2; T cruzi inh: 23; Calb FLC: -4; LANA-H2A inh: 0.6; UCH37 inh: 4.8; Bfl-1 A1 inh: 0.7

Results for CCCCNC(=O)C(=O)N/N=C/c1cccc(Br)c1 ?
Beta2AR agonist: -5; Beta apoptosis: -11; RanGTP-Imp inh: -2.1; T cruzi inh: 1; Calb FLC: inconclusive; LANA-H2A inh: -4.4; Bfl-1 A1 inh: -0.1

What do the screens show for `Cc1ccc(C2CC(=O)c3cnc(N4CCc5ccccc5C4)nc3C2)cc1` (stereo unspecified)?
Beta2AR agonist: 4; Beta apoptosis: 0; RanGTP-Imp inh: -0.2; T cruzi inh: -2; Calb FLC: 21; LANA-H2A inh: 0.4; UCH37 inh: -4.8; Bfl-1 A1 inh: 0.2

Results for S=C(NCCc1ccccc1)N1CCn2cccc2C1c1cccnc1 (stereo unspecified) ?
Beta2AR agonist: -4; Beta apoptosis: -5; RanGTP-Imp inh: 4.0; T cruzi inh: 68*; Calb FLC: -8; LANA-H2A inh: 0.5; UCH37 inh: 3.9; Bfl-1 A1 inh: -0.1

What do the screens show for `CC1CN(c2cc3nccnc3cc2F)CC(C)O1` (stereo unspecified)?
Beta2AR agonist: 6; Beta apoptosis: -8; RanGTP-Imp inh: -2.5; T cruzi inh: -5; Calb FLC: 3; LANA-H2A inh: -9.8; UCH37 inh: 1.3; Bfl-1 A1 inh: 0.8

A stretch from further up, for reference:
Results for S=C(NCCc1ccccc1)N1CCn2cccc2C1c1cccnc1 (stereo unspecified) ?
Beta2AR agonist: -4; Beta apoptosis: -5; RanGTP-Imp inh: 4.0; T cruzi inh: 68*; Calb FLC: -8; LANA-H2A inh: 0.5; UCH37 inh: 3.9; Bfl-1 A1 inh: -0.1

What do the screens show for `CC1CN(c2cc3nccnc3cc2F)CC(C)O1` (stereo unspecified)?
Beta2AR agonist: 6; Beta apoptosis: -8; RanGTP-Imp inh: -2.5; T cruzi inh: -5; Calb FLC: 3; LANA-H2A inh: -9.8; UCH37 inh: 1.3; Bfl-1 A1 inh: 0.8

The listing continues.
How did COc1ccc(S(=O)(=O)Oc2cc(C(=S)N3CCOCC3)ccc2OC)cc1 do in these assays?
Beta2AR agonist: 7; RanGTP-Imp inh: 1.5; T cruzi inh: 4; Calb FLC: -8; UCH37 inh: 2.7

Results for O=C(Nc1nc2ccc(S(=O)(=O)N3CCCC3)cc2s1)C1CCCO1 (stereo unspecified) ?
Beta2AR agonist: 9; Beta apoptosis: -6; RanGTP-Imp inh: -1.4; T cruzi inh: 1; Calb FLC: -9; LANA-H2A inh: 4.1; UCH37 inh: 3.7; Bfl-1 A1 inh: -0.1

How did Cc1cc2c(cc1S(=O)(=O)NCCc1ccc(Cl)cc1)OCC(=O)N2 do in these assays?
Beta2AR agonist: 6; Beta apoptosis: 7; RanGTP-Imp inh: -0.7; T cruzi inh: 4; Calb FLC: -5; LANA-H2A inh: 1.8; UCH37 inh: 1.6; Bfl-1 A1 inh: 0.6

How did O=C(NC(=S)Nc1ccccn1)c1cccc([N+](=O)[O-])c1 do in these assays?
Beta2AR agonist: -8; Beta apoptosis: 0; RanGTP-Imp inh: 4.4; T cruzi inh: 13; Calb FLC: -10; LANA-H2A inh: -2.1; UCH37 inh: 5.8; Bfl-1 A1 inh: -0.8

What do the screens show for `COc1cc(C2=NOC(C(=O)Nc3ccc4c(c3)OCO4)C2)cc(OC)c1OC` (stereo unspecified)?
Beta2AR agonist: 14; Beta apoptosis: 4; RanGTP-Imp inh: -5.9; T cruzi inh: 3; Calb FLC: 18; LANA-H2A inh: -0.9; UCH37 inh: -0.5; Bfl-1 A1 inh: 1.1

How did COc1ccc(N2C(=O)CC2(/C=C/c2ccccc2OC)C(=O)NC2CCCC2)cc1 (stereo unspecified) do in these assays?
Beta2AR agonist: -6; Beta apoptosis: -1; RanGTP-Imp inh: 1.3; T cruzi inh: 0; Calb FLC: -5; LANA-H2A inh: -6.3; UCH37 inh: 2.6; Bfl-1 A1 inh: 1.0

How did COC(=O)c1cn(-c2nc(C)c3c(n2)CCC3)nn1 do in these assays?
Beta2AR agonist: -1; Beta apoptosis: -7; RanGTP-Imp inh: 11; T cruzi inh: -20; Calb FLC: 1; LANA-H2A inh: 1.5; UCH37 inh: 1.3; Bfl-1 A1 inh: -0.4

How did COc1cccc(Nc2nnc(Cc3cccnc3)c3ccccc23)c1 do in these assays?
Beta2AR agonist: 2; Beta apoptosis: 1; RanGTP-Imp inh: -2.8; T cruzi inh: -5; Calb FLC: 1; LANA-H2A inh: 1.2; UCH37 inh: -0.2; Bfl-1 A1 inh: 2.2

How did Cc1cc(N2C(=O)C(O)=C(C(=O)c3ccco3)C2c2cccnc2)no1 (stereo unspecified) do in these assays?
Beta apoptosis: -1; RanGTP-Imp inh: 4.2; T cruzi inh: -8; Calb FLC: -13; LANA-H2A inh: -3.0; UCH37 inh: 8.5; Bfl-1 A1 inh: 0.4

What do the screens show for `CCCCCn1c(=O)[nH]c2cc(C(=O)NCCCN3CCCCC3)ccc2c1=O`?
Beta2AR agonist: 7; Beta apoptosis: -8; RanGTP-Imp inh: inconclusive; T cruzi inh: -3; Calb FLC: 4; LANA-H2A inh: 1.0; UCH37 inh: -19; Bfl-1 A1 inh: -0.5

Screening data deposited in PubChem by several laboratories.
